FGF22 binding: FGF22 (human) thermal shift binding. Q9HCT0. recombinant FGF22 thermal shift, SYPRO orange fluorescence; percent of sucrose octasulfate shift, DMSO zero. calls only at 9.99 µM. 1.5% of 340,000 active. AID 651658;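 active = melting point raised past a set limit in the mean and every replicate; three in four hits are not shown here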
Target sequence (Q9HCT0 whole entry, looked up): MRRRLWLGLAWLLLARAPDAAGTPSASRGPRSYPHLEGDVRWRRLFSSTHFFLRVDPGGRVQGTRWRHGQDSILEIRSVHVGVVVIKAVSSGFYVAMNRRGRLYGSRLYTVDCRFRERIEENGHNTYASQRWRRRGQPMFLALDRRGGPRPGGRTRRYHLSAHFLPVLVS
Calls only; i = inactive. Not all compounds are listed; count on the stated rates, not on these rows.

molecule,FGF22 binding
Cc1noc(C)c1NC(=O)Nc1ccc2c(c1)C(=O)N([C@H](C)CO)C[C@@H](C)[C@@H](CN(C)Cc1ccc(C(F)(F)F)cc1)OCCCC[C@H](C)O2,i
C[C@@H]1CN([C@H](C)CO)C(=O)CCCn2cc(nn2)CO[C@@H]1CN(C)S(=O)(=O)c1cccc(F)c1,i
C[C@@H]1CN([C@H](C)CO)C(=O)c2cc(NC(=O)Nc3ccccc3)ccc2O[C@@H](C)CCCCO[C@@H]1CN(C)S(=O)(=O)c1cn(C)cn1,i
Cn1cnc(S(=O)(=O)N2C[C@@H](O)COC[C@H]3O[C@H](CC(=O)N4CCN(c5ccccc5)CC4)CC[C@@H]32)c1,i
O=C(N[C@@H]1CC[C@@H](CCNS(=O)(=O)c2ccc(F)cc2)O[C@H]1CO)c1cnccn1,i
C[C@@H]1CN([C@H](C)CO)C(=O)c2cc(-c3ccncc3)cnc2O[C@@H]1CN(C)C(=O)c1ccccc1F,i
COc1ccc(CN(C)C[C@H]2Oc3ccc(NS(=O)(=O)c4ccc(F)cc4)cc3CC(=O)N([C@H](C)CO)C[C@@H]2C)cc1,i
C[C@@H]1CN([C@H](C)CO)C(=O)c2cccc(NC(=O)Nc3cccc4ccccc34)c2O[C@H]1CN(C)C(=O)NC1CCCCC1,i
C[C@H](NC(=O)C[C@H]1CC[C@H]2[C@H](COc3ccc(NS(=O)(=O)c4ccc(Cl)cc4)cc3C(=O)N2C)O1)c1ccccc1,i
CO[C@H]1CN(C)C(=O)c2ccc(NC(=O)c3ccc(F)cc3)cc2OC[C@@H](C)N(C(=O)CC2CC2)C[C@@H]1C,i
C[C@@H]1CN([C@H](C)CO)C(=O)Cc2cc(NC(=O)Cc3cn(C)c4ccccc34)ccc2O[C@@H]1CN(C)Cc1ccc(Cl)c(Cl)c1,i
CCCNC(=O)N1CC2(C1)[C@@H](c1ccccc1)[C@@H](CO)N2Cc1ccccn1,i
COc1cccc(-c2ccc3c(c2)O[C@H](CN(C)C(C)=O)[C@@H](C)CN([C@H](C)CO)S3(=O)=O)c1,i
CN(C)c1ccc2c(c1)[C@H]1C[C@H](CC(=O)NCc3ccc(Cl)cc3)O[C@@H](CO)[C@H]1O2,i
COc1ccc(CN(C)C[C@@H]2Oc3ccc(NS(=O)(=O)c4cccs4)cc3CC(=O)N([C@@H](C)CO)C[C@@H]2C)cc1,i
COc1cccc(-c2ccc([C@H]3[C@H]4CN(C(=O)c5ccc(F)cc5)CCCCN4[C@H]3CO)cc2)c1,i
C[C@H]1CN([C@@H](C)CO)C(=O)c2cc(NC(=O)Nc3cccc4ccccc34)ccc2O[C@H]1CN(C)C(=O)NC1CCCCC1,i
CCC(=O)N1C[C@H]2[C@@H](c3ccccc31)[C@@H](CO)N2Cc1ccc(F)cc1,i
Nc1ccn([C@@H]2O[C@H](C(=O)N3CCN(CCO)CC3)[C@@H](O)[C@H]2O)c(=O)n1,i
C[C@@H]1CN([C@@H](C)CO)C(=O)c2cc(C#C[C@@H](C)O)cnc2O[C@@H]1CN(C)C(=O)Cc1ccncc1,i
O=C([C@@H]1[C@@H](CO)[C@@H]2Cn3c(ccc(-c4ccccc4)c3=O)[C@H]1N2)N1CCCCC1,i
O=C(C[C@H]1CC[C@H]2[C@@H](COC[C@H](O)CN2Cc2ccc3c(c2)OCO3)O1)Nc1ccc(-c2ccccc2)cc1,i
C[C@H](NC(=O)C[C@H]1CC[C@@H](NC(=O)C2CCOCC2)[C@H](CO)O1)c1ccccc1,i
CN1CCCCN2[C@H](CO)[C@H](c3ccc(-c4ccc(F)cc4)cc3)[C@@H]2C1,i
Cc1cc(C(=O)Nc2cccc3c2O[C@@H](CN(C)C(=O)Nc2ccc4c(c2)OCO4)[C@H](C)CN([C@@H](C)CO)C3=O)n(C)n1,i

Reprinted at random: 4 records from the list
molecule,FGF22 binding
COc1cccc(-c2ccc3c(c2)O[C@H](CN(C)C(C)=O)[C@@H](C)CN([C@H](C)CO)S3(=O)=O)c1,i
Cn1cnc(S(=O)(=O)N2C[C@@H](O)COC[C@H]3O[C@H](CC(=O)N4CCN(c5ccccc5)CC4)CC[C@@H]32)c1,i
CCCNC(=O)N1CC2(C1)[C@@H](c1ccccc1)[C@@H](CO)N2Cc1ccccn1,i
Nc1ccn([C@@H]2O[C@H](C(=O)N3CCN(CCO)CC3)[C@@H](O)[C@H]2O)c(=O)n1,i

(more compounds)
molecule,FGF22 binding
C[C@H](CO)N1C[C@H](C)[C@@H](CN(C)Cc2cccc(F)c2)Oc2ncc(C3=CCCC3)cc2C1=O,i
COc1ccc(CN(C)C[C@@H]2OCCCC[C@H](C)Oc3ccc(N(C)C)cc3C(=O)N([C@H](C)CO)C[C@@H]2C)cc1,i
C=CCNC(=O)[C@@H]1[C@H]2C(=O)O[C@H](c3ccccc3)[C@H](c3ccccc3)N2[C@H](c2ccc(O)cc2)[C@@]12C(=O)N(C(=O)OCCOC)c1ccc(C#Cc3ccc(OC)cc3)cc12,i
COc1ccccc1C(=O)Nc1ccc2c(c1)OC[C@H](C)N(C)C[C@H](C)[C@@H](OC)CN(C)C2=O,i
C[C@@H]1CCCCO[C@H](CN(C)C(=O)Nc2ccccc2)[C@@H](C)CN([C@H](C)CO)C(=O)c2cc(NS(=O)(=O)c3ccc(F)cc3)ccc2O1,i
C[C@@H]1CN([C@@H](C)CO)C(=O)c2cccc(NC(=O)C3CCOCC3)c2O[C@H]1CN(C)Cc1ccccc1,i
CC(C)NC(=O)Nc1ccc2c(c1)CC(=O)N([C@H](C)CO)C[C@H](C)[C@@H](CN(C)Cc1ccc3c(c1)OCO3)O2,i
C[C@@H]1CN([C@H](C)CO)C(=O)Cc2cc(NS(=O)(=O)c3cn(C)cn3)ccc2O[C@H]1CN(C)Cc1ccncc1,i
O=C(N[C@@H]1CC[C@@H](CCNS(=O)(=O)c2ccccc2)O[C@H]1CO)c1cccnc1,i
C[C@H](CO)N1C[C@H](C)[C@H](CN(C)S(=O)(=O)c2cn(C)cn2)Oc2c(NS(C)(=O)=O)cccc2C1=O,i
C[C@@H]1CN([C@@H](C)CO)C(=O)c2cc(C#CCc3ccccc3)cnc2O[C@H]1CN(C)CC1CCCC1,i
CCC(=O)N[C@@H]1CC[C@H](CC(=O)NCCN2CCCCC2)O[C@@H]1CO,i
O=C(C[C@@H]1CC[C@@H]2[C@H](COC[C@H](O)CN2Cc2ccccc2F)O1)N[C@@H]1CCN(Cc2ccccc2)C1,i
O=C(C[C@H]1C[C@H]2c3cc(NC(=O)Nc4ccccc4F)ccc3O[C@H]2[C@H](CO)O1)NC1CCCC1,i
CCN(C[C@@H]1[C@@H](c2ccc(-c3ccccc3)cc2)[C@H](CO)N1C(C)=O)C(C)=O,i
COc1ccc2c3c([nH]c2c1)[C@H](CO)N(Cc1ccccc1F)CC31CCN(C(=O)C2CCOCC2)CC1,i
Cc1ccccc1S(=O)(=O)N1CC[C@@H]2[C@H](CO)Nc3ccc(-c4cccc(C#N)c4)cc3[C@@H]21,i
O=C(C[C@@H]1C=C[C@H](NC(=O)CN2CCOCC2)[C@H](CO)O1)NCCc1ccccc1,i
N#C[C@@H]1[C@H](c2ccc(C3=CCCC3)cc2)[C@@H](CO)N1C(=O)C1CCC1,i
CCC(=O)N1CCCCN2[C@H](CO)[C@H](c3ccc(-c4ccc(F)cc4)cc3)[C@@H]2C1,i
C[C@H](CO)N1C[C@H](C)[C@@H](CN(C)C)Oc2cc(C#Cc3ccccc3)ccc2S1(=O)=O,i
CC(C)NC(=O)N(C)C[C@@H]1Oc2ccc(N(C)C)cc2C(=O)N([C@@H](C)CO)C[C@@H]1C,i
O=C(Nc1ccc2c(c1)[C@@H]1C[C@H](CC(=O)N3CCc4ccccc4C3)O[C@H](CO)[C@@H]1O2)c1ccc2c(c1)OCO2,i
CC(=O)Nc1ccc2c(c1)C(=O)N(C)[C@@H]1CC[C@@H](CC(=O)N3CCc4ccccc4C3)O[C@@H]1CO2,i
Cc1ccc(S(=O)(=O)Nc2ccc3c(c2)C(=O)N([C@H](C)CO)C[C@@H](C)[C@H](CN(C)C(=O)Nc2ccc(F)cc2)OCCCC[C@@H](C)O3)cc1,i

(next part)
molecule,FGF22 binding
COc1cccc(NC(=O)Nc2ccc3c(c2)C(=O)N(C)C[C@@H](OC)[C@H](C)CN[C@H](C)CO3)c1,i
O=C(C[C@@H]1CC[C@@H]2[C@H](COC[C@@H](O)CN2Cc2ccncc2)O1)NCc1ccncc1,i
C[C@@H]1CN([C@H](C)CO)C(=O)c2cc(NS(=O)(=O)c3cn(C)cn3)ccc2O[C@H]1CN(C)C,i
Cc1ccccc1S(=O)(=O)N1CC[C@H]2[C@H](CO)Nc3ccc(C#Cc4ccccc4)cc3[C@H]21,i
CCCCCCCCN1C(=O)[C@@H](CC(=O)NCCc2ccccc2OC)C[C@@]2(C(=O)OC)C1=C[C@H](C1CCCC1)O[C@@H]2C,i
CN(C)C(=O)c1cccc(-c2ccc3c(c2)[C@H]2[C@H](CCN2S(=O)(=O)c2cn(C)cn2)[C@H](CO)N3)c1,i
O=C(C[C@H]1C=C[C@H](NC(=O)Nc2ccc(F)cc2)[C@@H](CO)O1)NCc1cccc(F)c1,i
CCCCCCCN(c1ccccc1)C1C[C@H]2CCCC(=O)N3CC[C@@H](C1)[C@@H]23 (stereo partly drawn),i
CC(C)CC#Cc1ccc2c(c1)O[C@@H](CN(C)C(=O)NC1CCCC1)[C@H](C)CN([C@@H](C)CO)S2(=O)=O,i
O=C(Nc1ccc(F)cc1)Nc1ccc2c(c1)[C@@H]1C[C@@H](CC(=O)N3CCOCC3)O[C@@H](CO)[C@@H]1O2,i
C[C@@H]1CN([C@@H](C)CO)C(=O)c2cc(NS(=O)(=O)c3ccccc3)ccc2O[C@@H](C)CCCCO[C@@H]1CN(C)Cc1ccncc1,i
COCC(=O)N(C)C[C@@H]1[C@@H](c2ccc(-c3ccccc3)cc2)[C@H](CO)N1C(C)=O,i
C[C@@H]1CCCCO[C@@H](CN(C)Cc2ccncc2)[C@H](C)CN([C@@H](C)CO)C(=O)c2cc(NC(=O)CCCN(C)C)ccc2O1,i
C[C@@H]1CN([C@@H](C)CO)C(=O)c2cccc(NC(=O)Nc3ccccc3)c2O[C@@H]1CN(C)Cc1ccc(Oc2ccccc2)cc1,i
COc1ccc(-c2ccc3c(c2)O[C@@H](CN(C)C(=O)Nc2ccccc2F)[C@H](C)CN([C@@H](C)CO)S3(=O)=O)cc1,i
CS(=O)(=O)Nc1ccc2c(c1)[C@@H]1C[C@H](CC(=O)NCc3ccc(-c4ccccc4)cc3)O[C@@H](CO)[C@@H]1O2,i
CC(=O)N(C)C[C@H]1Oc2ncc(C#C[C@@H](C)O)cc2C(=O)N([C@@H](C)CO)C[C@@H]1C,i
CCNC(=O)[C@H]1[C@H](CO)[C@H]2Cn3c(ccc(-c4ccccc4)c3=O)[C@@H]1N2Cc1ccccc1,i
C[C@@H](NC(=O)C[C@H]1CC[C@@H]2[C@H](COC[C@@H](O)CN2C(=O)Nc2ccccc2)O1)c1ccccc1,i
O=C(NC1Cc2ccccc2C1)[C@@H]1N[C@@H]2c3cccc(=O)n3C[C@@H]2[C@H]1CO,i
C[C@@H]1CN([C@H](C)CO)C(=O)Cc2cc(NC(=O)Cn3cnnn3)ccc2O[C@@H]1CN(C)Cc1ccc(-c2ccccc2)cc1,i
O=C(Nc1cccc(Cl)c1)N[C@H]1CC[C@H](CCNC(=O)C2CCOCC2)O[C@H]1CO,i
COc1ccc2c3c(n(C)c2c1)[C@@H](CO)N(C(=O)C1CCCCC1)CC31CCN(C(=O)c2ccncc2)CC1,i
C[C@H]1CN([C@@H](C)CO)C(=O)c2cc(NC(=O)Nc3ccc(F)cc3)ccc2O[C@@H]1CN(C)S(=O)(=O)c1ccccc1,i
COc1ccc(NC(=O)N(C)C[C@H]2Oc3ccc(NC(=O)NC4CCCCC4)cc3CC(=O)N([C@@H](C)CO)C[C@@H]2C)cc1,i

(further entries)
molecule,FGF22 binding
COc1ccc(S(=O)(=O)N(C)C[C@H]2Oc3ccc(NC(=O)NC(C)C)cc3CC(=O)N([C@H](C)CO)C[C@H]2C)cc1,i
CCC(=O)N(C)C[C@H]1Oc2cc(C#CC3CCCCC3)ccc2S(=O)(=O)N([C@H](C)CO)C[C@@H]1C,i
C[C@H]1CN([C@@H](C)CO)C(=O)c2cc(/C=C/c3ccccc3)cnc2O[C@H]1CN(C)C(=O)Cc1cccnc1,i
C[C@@H]1CN([C@H](C)CO)C(=O)c2cc(NS(=O)(=O)c3ccc(Cl)cc3)ccc2O[C@H]1CN(C)S(=O)(=O)c1cccs1,i
N#C[C@@H]1[C@@H](c2ccccc2-c2ccc(F)cc2)[C@@H](CO)N1C(=O)Cc1ccccc1,i
C[C@H]1CCCCO[C@@H](CN(C)C(=O)Nc2ccccc2)[C@@H](C)CN([C@@H](C)CO)C(=O)c2cc(NC(=O)Cc3ccccc3)ccc2O1,i
C[C@H](CO)N1C[C@H](C)[C@H](CN(C)C(=O)Cc2ccccc2)OCCCC[C@H](C)Oc2ccc(NC(=O)c3ccccc3)cc2C1=O,i

Part of the list above in order of heavy-atom count, highest first:
molecule,FGF22 binding
COc1ccc(-c2ccc3c(c2)O[C@@H](CN(C)C(=O)Nc2ccccc2F)[C@H](C)CN([C@@H](C)CO)S3(=O)=O)cc1,i
C[C@@H]1CN([C@H](C)CO)C(=O)CCCn2cc(nn2)CO[C@@H]1CN(C)S(=O)(=O)c1cccc(F)c1,i
C[C@@H]1CN([C@H](C)CO)C(=O)c2cc(NS(=O)(=O)c3cn(C)cn3)ccc2O[C@H]1CN(C)C,i
O=C(N[C@@H]1CC[C@@H](CCNS(=O)(=O)c2ccc(F)cc2)O[C@H]1CO)c1cnccn1,i
CN1CCCCN2[C@H](CO)[C@H](c3ccc(-c4ccc(F)cc4)cc3)[C@@H]2C1,i

Screening results as filed in PubChem.
